# S aureus helic: S. aureus DNA helicase inhibition; purified S. aureus helicase, fluorescence unwinding assay; about half of the hits fall short of the stated cut; 120,000 compounds, 0.05% hits; inhibition, %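 (tested at about 80 µM)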;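 active means both duplicates at 50% or more, or one of them with a favoured structure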;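 further: 0% = mean of negative control wells and 100% = mean of positive control wells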
# MgrA DNA FP: modulators of Staphylococcus aureus MgrA DNA binding. fluorescence polarization. 84,000 compounds, 0.13% hits. inhibition, %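 (about 10 µg/mL by stock and volumes)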;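 active means above 50% in either of two replicates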;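 further: 0% = protein plus DNA without compound and 100% = DNA alone without protein; higher means less MgrA bound to DNA so lower polarization; one replicate is shown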
# * hit, by the source's call; · = not tested or not shown.
1: COC(=O)CNc1ccccc1C(=O)O
2: NC(=O)c1ccc(NC(=O)CSC(=O)c2ccccc2)cc1
3: O=C(NCCN1CCCC1)c1ccc(F)cc1
4: O=C(/C(=C\c1ccc(F)cc1)n1ccccc1=O)N1CCCC1
5: CCOC(=O)c1ccc(NC(=O)CSc2cn(C)c3ccccc23)cc1
compound no.	1	2	3	4	5
S aureus helic	19.0	-8.0	5.0	0.0	-11.0
MgrA DNA FP	·	4.0	·	-5.5	·

6: Cc1ccc(N/C(N)=N/c2nc(C)cc(=O)[nH]2)c(C)c1
7: O=C(Nc1cccc(Cl)c1)OCC#Cc1ccc(-c2ccccn2)s1
8: CN(Cc1ccccc1)C(=O)c1sc2ccccc2c1Cl
9: CCc1ccc(NC(=O)CN(C)S(=O)(=O)c2cc(Br)cnc2N)cc1
10: Cc1ccc2cc3c(nc2c1)N(c1ccc(C(=O)O)cc1)CC3
compound no.	6	7	8	9	10
S aureus helic	2.0	·	-24.0	16.0	13.0
MgrA DNA FP	1.6	0.0	·	0.1	2.0

11: CCSc1nc2ccccc2c(=O)n1CC
12: CN1/C(=C\C(=O)c2ccccc2)Sc2ccccc21
13: O=C(NCc1ccccc1)C1CC1(c1ccccc1)c1ccccc1 (stereo not drawn)
14: CC(C)N(C(=O)Cn1c(=O)n(-c2ccc(F)cc2)c(=O)c2oc3ccccc3c21)C(C)C
15: N#CCSc1nc2cc(C(=O)NCc3ccccc3)ccc2c(=O)n1CCc1ccccc1
compound no.	11	12	13	14	15
S aureus helic	-13.0	-1.0	-10.0	-15.0	11.0
MgrA DNA FP	1.2	·	0.7	·	0.2

# Sorted by heavy-atom count (descending): 3 of the compounds above
14: CC(C)N(C(=O)Cn1c(=O)n(-c2ccc(F)cc2)c(=O)c2oc3ccccc3c21)C(C)C
13: O=C(NCc1ccccc1)C1CC1(c1ccccc1)c1ccccc1 (stereo not drawn)
10: Cc1ccc2cc3c(nc2c1)N(c1ccc(C(=O)O)cc1)CC3
compound no.	14	13	10
S aureus helic	-15.0	-10.0	13.0
MgrA DNA FP	·	0.7	2.0

# Later entries.
16: CN1CCC(N(C)C(=O)COc2ccc(S(=O)(=O)N3CCOCC3)cc2)CC1
17: CCN(CC)c1ccc(-n2c(C)cc(/C=C3/NC(=O)N(Cc4ccccc4F)C3=O)c2C)cc1
18: O=C(CN1CCN(S(=O)(=O)c2ccc3[nH]c(=O)[nH]c3c2)CC1)N1CCCCCC1
19: O=C(/C=C/c1c(Cl)nc2sccn12)Nc1ccc(F)cc1
20: CCc1ccccc1N(CC(=O)N1CCc2ccccc2C1)S(C)(=O)=O
compound no.	16	17	18	19	20
S aureus helic	19.0	0.0	4.0	-9.0	16.0
MgrA DNA FP	·	1.0	·	·	6.9

21: CC(=O)OCC(=O)Nc1ccccc1
22: COc1ccc2cc3cc(C(=O)NC4CCCC(C)C4C)oc3nc2c1 (stereo not drawn)
23: COC(=O)C1=C(CS(=O)(=O)c2ccccc2)NC(=O)NC1c1ccccc1 (stereo not drawn)
24: Cc1nonc1NC(=O)Nc1cccnc1
25: Cc1cccc(N2C(=O)c3ccc(C(=O)Nc4c[nH]c(=O)[nH]c4=O)cc3C2=O)c1C
compound no.	21	22	23	24	25
S aureus helic	-9.0	15.0	-21.0	-4.0	4.0
MgrA DNA FP	·	0.1	·	-2.4	-3.0

26: CC(=O)Nc1ccc(S(=O)(=O)N2CCN=C2SCc2ccc(C)cc2)cc1
27: CC(C)(C)c1ccccc1NC(=O)c1ccc2c(c1)SC1=NS(=O)(=O)CCN12
28: Nc1nonc1C(=O)N1CCCCC1
29: Cn1cc(NC(=O)NCCc2ccsc2)c2ccccc2c1=O
30: Cc1cn(C2C=CC(CO)O2)c(=O)[nH]c1=O (stereo not drawn)
compound no.	26	27	28	29	30
S aureus helic	3.0	-13.0	-11.0	-9.0	8.0
MgrA DNA FP	·	·	-0.1	1.4	·

31: CCCNC(=O)Nc1cc(C)ccn1
32: O=C(NCCO)c1nc2ccccc2s1
33: CCOC(=O)c1[nH]c(C(=O)O)c(CCN(CC)CC)c1C
34: CCOC(=O)c1ccc(NC(=O)c2ccc(-c3ccc(F)cc3)o2)cc1
35: NC(=O)CSc1nc2[nH]ncc2c(=O)[nH]1
compound no.	31	32	33	34	35
S aureus helic	4.0	1.0	-11.0	5.0	11.0
MgrA DNA FP	-1.5	-2.5	·	4.8	·

36: COc1ccc(S(=O)(=O)N(C)CC(=O)O)c2ccccc12
37: O=C(NCc1cccs1)c1cccn2c(=O)c3c4c(sc3nc12)CCCC4
38: Cc1cc(C(=O)OC(C)C(=O)N2CCc3ccccc32)c2ccccc2n1 (stereo not drawn)
39: O=C(C1CCCCC1)N1CCNCC1
40: O=C(O)C1CC1C(=O)Nc1ccc(Oc2ccc(Cl)cc2C2CCCCC2)nc1 (stereo not drawn)
compound no.	36	37	38	39	40
S aureus helic	-1.0	-38.0	-2.0	·	·
MgrA DNA FP	-3.0	·	·	-2.3	5.9

41: COC(=O)c1cc(S(=O)(=O)N2CCC(C)CC2)c[nH]1
42: COc1ccc(N2CCN(C(=O)c3ccc(C#CC(C)(C)O)cc3)CC2)cc1
43: N#CC1=C(c2ccccc2)COC1=O
44: Cc1c(C(=O)O)sc2c1C(=O)NS2(=O)=O
45: O=C(C1Sc2nnc(-c3ccccc3)n2NC1c1ccccc1)N1CCCC1 (stereo not drawn)
compound no.	41	42	43	44	45
S aureus helic	-18.0	12.0	·	11.0	8.0
MgrA DNA FP	·	·	-3.0	·	0.1

46: Nc1nnc(C2=C(O)/C(=C/c3ccccc3)CC2)s1
47: COc1ccc(-n2cnc3cc(C(=O)NCc4ccccc4OC)ccc32)cc1
48: CCOc1cc(C(=O)NCCc2nc3ccccc3[nH]2)cc(OCC)c1OCC
49: CCN(c1ccc(C(=O)CSc2nnc(C(F)(F)F)n2C)cc1)S(C)(=O)=O
50: O=C1Nc2cc(C(=O)N3CCN(c4ccccc4)CC3)ccc2Sc2ccccc21
compound no.	46	47	48	49	50
S aureus helic	-33.0	9.0	-20.0	-4.0	3.0
MgrA DNA FP	·	-1.2	·	·	-0.1

# By substructure, the entries above containing an aryl methoxy group (4)
22: COc1ccc2cc3cc(C(=O)NC4CCCC(C)C4C)oc3nc2c1 (stereo not drawn)
36: COc1ccc(S(=O)(=O)N(C)CC(=O)O)c2ccccc12
42: COc1ccc(N2CCN(C(=O)c3ccc(C#CC(C)(C)O)cc3)CC2)cc1
47: COc1ccc(-n2cnc3cc(C(=O)NCc4ccccc4OC)ccc32)cc1
compound no.	22	36	42	47
S aureus helic	15.0	-1.0	12.0	9.0
MgrA DNA FP	0.1	-3.0	·	-1.2

# Continuation.
51: CCN(c1ccc(F)cc1)S(=O)(=O)c1ccc2[nH]cc(C(=O)NCC3CCCO3)c(=O)c2c1 (stereo not drawn)
52: Cc1cc(C)c2c3n(nc2n1)C(=O)NC(C(F)(F)F)(C(F)(F)F)N3
53: CC(C)c1ccc(-c2nc(N3CCCCCC3)nc3n[nH]c(N)c23)cc1
54: CCc1oc(C(=O)O)cc1CN(CC)CC
55: CC(C)c1cc(NCCN2CCOCC2)n2c(nc3ccccc32)c1C#N
compound no.	51	52	53	54	55
S aureus helic	-3.0	3.0	12.0	8.0	-13.0
MgrA DNA FP	·	0.0	·	·	·

56: Clc1ccc(Cn2ncc3c(N4CCCCC4)ncnc32)cc1
57: Cc1noc(C)c1S(=O)(=O)NC(C)C(=O)O (stereo not drawn)
58: C=C(C)c1cccc(C(C)(C)NC(=O)Nc2ncccn2)c1
59: CC(C)n1cnnc1SCC(=O)Nc1ccc(F)cc1
60: CCn1c(=O)c(=O)[nH]c2cc(C(=O)Nc3nc(CN4CCCCC4)cs3)ccc21
compound no.	56	57	58	59	60
S aureus helic	-23.0	18.0	-4.0	17.0	11.0
MgrA DNA FP	·	-6.0	·	·	·

61: CCn1c(CSc2nnc(COc3ccc(OC)cc3)n2-c2ccccc2F)nc2cc(C(=O)O)ccc21
62: Cc1cc2c(=O)n(CC(=O)NCC(=O)N3CCC(C(N)=O)CC3)cnc2s1
63: N#C/C(=C(\O)CCl)c1nnc2n1CCCCC2
64: CC(CCc1ccco1)NC(=O)Cn1ncc2ccccc21 (stereo not drawn)
65: Cn1c(SCC(=O)c2ccc3c(c2)CCCC3)nc2ccccc2c1=O
compound no.	61	62	63	64	65
S aureus helic	-5.0	18.0	-1.0	-11.0	-2.0
MgrA DNA FP	·	·	-2.1	1.9	-0.3

# A few values from above:
# Result for CCc1ccccc1N(CC(=O)N1CCc2ccccc2C1)S(C)(=O)=O under MgrA DNA FP: 6.9
# Result for CN1/C(=C\C(=O)c2ccccc2)Sc2ccccc21 under S aureus helic: -1.0
# Result for CC(C)N(C(=O)Cn1c(=O)n(-c2ccc(F)cc2)c(=O)c2oc3ccccc3c21)C(C)C under S aureus helic: -15.0
# Result for CCN(CC)c1ccc(-n2c(C)cc(/C=C3/NC(=O)N(Cc4ccccc4F)C3=O)c2C)cc1 under S aureus helic: 0.0
# Result for N#CC1=C(c2ccccc2)COC1=O under MgrA DNA FP: -3.0
# Result for Clc1ccc(Cn2ncc3c(N4CCCCC4)ncnc32)cc1 under S aureus helic: -23.0
# Result for Nc1nonc1C(=O)N1CCCCC1 under S aureus helic: -11.0

# Going on with the list:
66: Cc1ccc(S(=O)(=O)NCc2ccc(/C=C(/C#N)C(=O)NCc3ccccc3)o2)cc1
67: CCOC(=O)c1ccc(-c2ccc(/C=C3\SC(N=Nc4c(O)[nH]c5ccccc45)=NC3=O)o2)cc1
68: COc1cc(C=C2C(=O)N(C)C(=O)N(C)C2=O)cc(Br)c1OCCOc1ccccc1
69: CC(C)(C)NC(=O)C(C(=O)c1ccccc1)n1ccccc1=O (stereo not drawn)
70: O=C(OCC(=O)N1CCCCC1)c1c[nH]c(=O)[nH]c1=O
compound no.	66	67	68	69	70
S aureus helic	1.0	-21.0	·	-2.0	-13.0
MgrA DNA FP	2.2	·	3.5	-2.7	·

71: COc1cc(-c2nc3ccccc3c(=O)n2NC(=O)COc2ccc(Cl)cc2Cl)cc(OC)c1OC
72: Cc1sc2ncn(C)c(=O)c2c1-c1ccccc1
73: Cc1cc(C(=O)Cn2cc(S(=O)(=O)N(C)C)ccc2=O)c(C)n1Cc1ccco1
74: Cc1ccc(N2C(=O)/C(=C\c3ccc4c(c3)OCO4)N=C2SCC(=O)N2CCN(C(=O)c3ccco3)CC2)cc1
75: O=S(=O)(/N=C/c1cc(Br)ccc1O)c1ccccc1
compound no.	71	72	73	74	75
S aureus helic	·	2.0	-15.0	10.0	2.0
MgrA DNA FP	-1.5	-3.0	·	·	·

76: O=C(COCc1nc2ccccc2c(=O)[nH]1)NCC1CCCCC1
77: CCCCN(C)S(=O)(=O)c1ccc(C(=O)Nc2cccc3c2C(=O)NC3=O)cc1
78: CCC(C)C(NC(=O)C1CCC(C)CC1)C(=O)Nc1cc(OC)ccc1OC (stereo not drawn)
79: CNc1nc2c(c(=O)n(C)c(=O)n2C)n1Cc1cccc(C)c1
80: Cc1ccc(-c2nnc(SCCC(=O)N3CCOCC3)o2)cc1
compound no.	76	77	78	79	80
S aureus helic	6.0	10.0	1.0	-17.0	-3.0
MgrA DNA FP	0.6	·	·	·	-1.9

81: Cc1noc(C)c1COc1cccc(C(=O)N2CCN(c3ccccc3)CC2)c1
82: O=C1CC(c2ccccc2)Sc2ccccc2N1 (stereo not drawn)
83: Cc1cccc(C(=O)Nc2nccs2)c1
84: Cc1nc2ccccc2n1CC(=O)O
85: C/C(=N\n1cnnc1)c1ccc2ccccc2c1
compound no.	81	82	83	84	85
S aureus helic	-2.0	·	·	0.0	-3.0
MgrA DNA FP	·	-1.4	-2.8	-2.2	·

86: CCN(C(=O)CSc1nc(C)cc(C(F)(F)F)n1)c1ccccc1
87: CCN1C(=O)c2ccccc2S(=O)(=O)c2ccc(C(=O)NC3CCCC3)cc21
88: O=C(Nc1ccc(N2CCCC2)cc1)c1ccc(Br)o1
89: CCN(CC)c1cc(C)c2cc(NC(=O)/C=C/c3ccco3)ccc2n1
90: CC(C)(C)NC(=O)COc1ccc(S(=O)(=O)N2CCOCC2)cc1
compound no.	86	87	88	89	90
S aureus helic	10.0	8.0	7.0	16.0	-5.0
MgrA DNA FP	0.5	-1.1	-2.8	·	0.7

91: CCC(C)NS(=O)(=O)c1ccc2c(c1)CC(=O)N2 (stereo not drawn)
92: c1cc2c(cc1Nc1nc(-c3ccc4c(c3)OCO4)cs1)OCCO2
93: CC(C)(C)c1nn(-c2ccccc2)c2[nH]c(=O)c(CNc3ccc4c(c3)OCO4)cc12
94: COCCNC(=O)NC1CCCCC1
95: O=C(Nc1ccc(N2CCCCC2)cc1)c1ccccc1
compound no.	91	92	93	94	95
S aureus helic	2.0	3.0	19.0	8.0	·
MgrA DNA FP	0.7	·	-0.2	1.4	-1.9

96: C=CCn1c(=O)c(C(=O)NC)c(O)c2cc(OC)c(OC)cc21
97: CCOc1ccc(C2Nc3ccccc3NC3=C2C(=O)CC(c2ccc(OC)cc2)C3)cc1OC (stereo not drawn)
98: Cc1cc(C)c(C#N)c(SC(C(=O)NC(C)(C)C)c2ccccc2)n1 (stereo not drawn)
99: O=C(NCc1nc(-c2ccc(Cl)cc2)no1)C1CCCCC1
100: Cc1c(/C=N/NC(=O)Cn2c(C(F)(F)F)nc3ccccc32)cc(C#N)n1C
compound no.	96	97	98	99	100
S aureus helic	-2.0	·	·	9.0	6.0
MgrA DNA FP	-1.4	-0.9	3.8	·	·

101: CCOc1nc(C)c(/C=C/C(=O)O)c(OCC)n1
102: Clc1ccc(C2N(Cc3ccccc3)CCC3CCCCN32)cc1Cl (stereo not drawn)
103: Cc1cc(C)c(S(=O)(=O)n2c(SCC(=O)NC3CCCCC3)nc3ccccc32)c(C)c1
104: Cc1ccc(C2CCN(C(=S)NC(C)C)C2)cc1 (stereo not drawn)
compound no.	101	102	103	104
S aureus helic	7.0	·	2.0	2.0
MgrA DNA FP	-13.1	2.2	0.7	-1.2

# Screening data as filed in PubChem BioAssay.

# Some of the compounds tested. The share of hits here may be higher or lower than overall.
